H5N1 CPE: antiviral screen in MDCK cells, H5N1 avian flu; cytopathic effect, luminescence, 72 h; hits give high values; no value below 0 was filed and about half of the inactive calls have no number; reference of the scale not given here; inhibition, % at 50 µM; hit rate 0.07% among 96,000; in the data active = inhibition above about 25%
* hit, by the source's call; i = inactive.

SMILES	H5N1 CPE
CCNC(=O)CN(CCc1ccccc1)S(=O)(=O)c1ccc(OC)cc1	1.1
CCCCNC(=O)NNC(=O)c1ccoc1C	i
CCOC(=O)CCCSc1nc2sc3c(c2c(=O)[nH]1)CCC3	1.3
Cc1ccc(N(Cc2ccco2)C(=O)c2cccc(S(=O)(=O)N(C)C)c2)cc1	0.6
O=c1[nH]cnc2c1sc1nc3c(c(-c4ccc(Cl)cc4)c12)CCC3	1.5
CSc1nc(N)nc(-c2cccs2)c1C#N	0.3
COc1ccc(NC(=O)Cn2c(=O)n(CC(=O)NCc3ccco3)c(=O)c3ccccc32)cc1	i
O=C(CSc1nc2ccccc2[nH]1)N1CCCCC1	i
Cc1c(CCC(=O)O)c(=O)oc2cc3occ(-c4ccc(F)cc4)c3cc12	0.1
Cc1ccc(Oc2nn[nH]n2)cc1	0.5
COc1cc(C(=O)NCc2cn3cccc(C)c3n2)cc(OC)c1OC	0.7
O=S(=O)(Cc1ccccc1)Nc1ccc(S(=O)(=O)NCC2CCCO2)cc1 (configuration not stated)	3.1
COc1ccc(NC(=O)CSc2nc3c(c(=O)n2-c2ccccc2OC)SCC3)cc1	0.5
Cc1ccc(N2C(=O)c3ccccc3C2Nc2ccc(S(=O)(=O)N3CCOCC3)cc2)nc1 (configuration not stated)	1.4
COc1cccc(C(=O)Nc2ccc(N3CCN(S(C)(=O)=O)CC3)cc2)c1	i
NC(=O)CC1SC(N)=NC1=O (configuration not stated)	1.0
Nc1cc(OC(=O)c2cccs2)nn1S(=O)(=O)c1ccccc1	0.4
Cc1ccc(NC2OC(C(O)CO)C(O)C2O)cc1[N+](=O)[O-] (configuration not stated)	0.3
COc1ccccc1-c1nnc(SCC(=O)N2CC(C)CC(C)C2)o1 (configuration not stated)	i
COc1ccc(C(=O)CN2C(=O)C(C)(C)Oc3ccc(C(=O)N4CCCCCC4)cc32)cc1	1.7
Cc1cc(NC(=O)c2cccs2)n(-c2ccccc2)n1	0.1
COc1ccc(C(=O)NC(CO)c2nnc(SCc3ccc(Cl)c(Cl)c3)n2C)cc1 (configuration not stated)	i
O=C(c1ccccc1Oc1ccccc1)N1CCN(c2ccccc2)CC1	2.5
CCOC(=O)c1cc(NC(=O)c2cnccn2)cc(C(=O)OCC)c1	i
O=C1CC(N2CCN(C/C=C/c3ccccc3)CC2)C(=O)N1Cc1cccs1 (configuration not stated)	0.4
Additional structures follow.
SMILES	H5N1 CPE
CCN(C(=O)c1cc(Cl)ccc1OC)c1ccccc1	0.2
CCOc1ccc(N(CC(=O)Nc2cccc(OC)c2)S(=O)(=O)c2c(C)noc2C)cc1	1.7
O=C(c1ccco1)N1CCN(c2nc(-c3ccc(F)cc3)cs2)CC1	i
COc1ccc(Oc2nnc(-c3ccccc3)cc2C#N)cc1	0.0
COc1ccccc1C(OC(=O)c1ccco1)C(=O)NC(C)(C)C (configuration not stated)	0.5
CC1CCCCC1NC(=O)CSc1nnc(COc2ccccc2Cl)o1 (configuration not stated)	i
COc1ccc(N2CCN(CCCNC(=O)CN3CCN(Cc4ccccc4C)C3=O)CC2)cc1	2.1
Cc1ccc(/C=N/NC(=O)Cn2nc(C)c(Br)c2C)o1	0.6
CCCN(CCC)C(=O)Cn1c(=O)n(CCC(=O)NCCc2ccccc2)c(=O)c2ccccc21	i
Cc1ccc2cc(CN(CCO)Cc3nnnn3Cc3ccc(F)cc3)c(=O)[nH]c2c1	0.4
O=C(Cn1c(=O)n(CC2CCCO2)c(=O)c2ccccc21)c1ccc(Cl)c(Cl)c1 (configuration not stated)	1.3
CN(C)c1nc(NS(=O)(=O)c2ccc(Cl)cc2)nc(N(C)C)n1	i
CCCC1(c2ccccc2)NC(=O)N(CC(=O)Nc2sc(-c3ccccc3)cc2C(=O)OCC)C1=O (configuration not stated)	0.2
Cc1ccc(C(C(=O)NC2CCCCC2)N(C(=O)Cc2c[nH]c3ccccc23)c2ccccc2)o1 (configuration not stated)	i
CC(=O)N(Cc1cccnc1)Cc1cc2ccc(C)cc2[nH]c1=O	0.2
COc1cccc(/C=N/n2c(-c3ccco3)nc3ccccc3c2=O)c1	i
COc1ccc(C2CC(C(F)(F)F)n3ncc(C(=O)Nc4cccc(O)c4)c3N2)cc1OC (configuration not stated)	i
CN(CC(=O)Nc1cccnc1)S(=O)(=O)c1cc(Cl)ccc1Cl	0.6
Fc1ccccc1NC(=S)NNc1ncc(C(F)(F)F)cc1Cl	i
COc1ccc(Cc2nc(-c3cccc(C)c3)no2)cc1	0.8
COc1ccccc1C(=O)Nc1cc2ccccc2oc1=O	i
CC1CCc2c(nc3ncnn3c2N2CCN(c3ccccc3)CC2)C1 (configuration not stated)	1.2
Cc1cccc(-n2cnc3cc(C(=O)N4CCCCC4)ccc32)c1	i
CC(C)CN1C(=O)C(=O)N(CC(=O)NCc2ccc3c(c2)OCO3)C1=O	i
CCOC(=O)CCNC(=O)Nc1ccc2nc(C)n(Cc3cccc(Cl)c3)c(=O)c2c1	0.4
(further entries)
SMILES	H5N1 CPE
CC1CC(C)CN(C(=O)c2ccccc2Nc2ccc(SC(F)F)cc2)C1 (configuration not stated)	2.9
Cc1ccc(C2CC(c3ccccc3)n3ncnc3N2)cc1 (configuration not stated)	1.0
Cc1sc2nc(COC(=O)Cc3ccccc3)[nH]c(=O)c2c1C	1.7
CC(OC(=O)c1cc(=O)[nH]c2ccccc12)c1ccccc1 (configuration not stated)	2.5
CC(C)CNC(=O)COc1ncnc2ccccc12	i
O=C(N/C(=C\c1ccc2c(c1)OCO2)C(=O)N1CCOCC1)c1cccs1	i
COc1ccc2[nH]c(C)c(CCN(Cc3cccs3)C(=S)Nc3ccccc3)c2c1	i
CC1CCc2c(sc(NC(=O)Cn3nc(C(F)(F)F)c4c3CCCCC4)c2C#N)C1 (configuration not stated)	i
COc1cc(OC)cc(-c2cc3nc(C)cc(N4CCN(C(=O)c5ccco5)CC4)n3n2)c1	0.2
Cc1n[nH]c(=S)n1/N=C/c1ccc(Br)o1	i
CC(C)c1ccc(OCC(=O)Nc2cccc3c2CCCC3)cc1	i
COc1ccc(CNC(=O)C2CCC(CNc3c(N4CCOCC4)c(=O)c3=O)CC2)cc1 (configuration not stated)	2.6
c1cncc(Nc2nc(-c3cccnc3)cs2)c1	0.9
O=S(=O)(c1ccc(NCC2CCCCC2)nc1)N1CCOCC1	i
COC(=O)c1c(CSc2ccc(Cl)cc2)noc1C(=O)NCc1ccco1	i
O=C(CSc1ncnc2c1oc1ccccc12)Nc1ccccc1C(F)(F)F	0.7
CCOC(=O)CN(C(=O)CSc1nnc(CNc2ccc(F)cc2)n1CC)c1ccc(F)cc1	0.1
CCOC(=O)C1=C(C)N(C)C2(C)CC1c1ccccc1O2 (configuration not stated)	0.1
CCOc1ccc(C2=CS/C(=C(\C#N)c3nnc4n3CCCCC4)N2CC)cc1	i
COc1ccc(C2SCC(=O)Nc3c2c(=O)[nH]n3C2CCCCCC2)cc1 (configuration not stated)	0.3
Cc1cccc(N2C(=O)C(Cl)=C(Nc3c(C)n(C)n(-c4ccccc4)c3=O)C2=O)c1C	0.2
N#C/C(=C\C1CC=CCC1)c1nc2ccccc2[nH]1 (configuration not stated)	0.8
CC1(C)CC(=O)C2=C(C1)NC(SCC(=O)Nc1ccccc1)=C(C#N)C2c1ccco1 (configuration not stated)	3.5
O=C(OCC(=O)N1CCCC1)c1ccccc1OCc1ccccc1	0.5
COc1ccc(S(=O)(=O)N(CC(C)C)CC(C)C)c2cccnc12	0.9

The last 2 compounds of the section before come first, to join the parts.
SMILES	H5N1 CPE
O=C(OCC(=O)N1CCCC1)c1ccccc1OCc1ccccc1	0.5
COc1ccc(S(=O)(=O)N(CC(C)C)CC(C)C)c2cccnc12	0.9
COc1ccc(C(=O)COC(=O)CNC(=O)C2CCCCC2)c(OC)c1	i
CCC(=O)N1CCN(CCN=CC2=C(O)CC(C)(C)CC2=O)CC1	i
Cc1cccc(NC(=O)CSc2nnc(-c3ccco3)o2)c1	0.1
Cc1oc(CC(C)C)cc1C(=O)Nc1cccc2ccccc12	i
Cc1ccc(NC(=O)c2ccc(CSc3ccccn3)cc2)cc1	i
Cc1ccc(C(=O)Nc2cccc(C(=O)O)c2)cc1S(=O)(=O)N1CCOCC1	0.1
Brc1ccc(-c2nnc(-c3ccccc3Br)o2)cc1	i
CCOC(=O)c1cc(C)n(-c2c(C)n(C)n(-c3ccccc3)c2=O)c1C	0.5
COc1ccc(N(CC(O)CN2C(=O)NC(C)(C)C2=O)S(=O)(=O)c2ccccc2)cc1 (configuration not stated)	i
COC(=O)c1ccccc1NC(=O)NC1CCN(Cc2ccccc2)CC1	i
CCC1CCCCN1Cc1ccc(OC)c(C)c1C (configuration not stated)	i
Oc1ccc(/C=C/c2nc(-c3ccccc3O)n(-c3ccccc3)n2)cc1	1.4
Cc1c(NC(=O)CSc2nc3ccc(Cl)cc3[nH]2)c(=O)n(-c2ccccc2)n1C	0.8
Cc1ccc(C(=O)Oc2csc(=S)n2C(=O)c2ccc(C)cc2)cc1	0.3
CC(C)(C)n1c(O)c(C=Nc2ccc3c(c2)CCC3)c(=O)[nH]c1=O	0.2
CC(C)c1ccc(NC(=O)C(c2ccccc2)N2CCC3(CC2)OCCO3)cc1 (configuration not stated)	i
Cc1ccc(NC(=O)N/C=C/c2ccccc2)cc1	2.0
Cc1cccc(N(Cc2nnc3n2CCCCC3)C(=O)Nc2ccccc2)c1	1.5
O=C(NCC(c1cccs1)N1CCOCC1)c1ccco1 (configuration not stated)	i
COc1ccc(NC(=O)c2ccccc2NC(=O)CSc2ccc(Cl)cc2)cc1	0.7
COc1ccc(NC(=O)c2ccccc2NC(=O)COc2ccccc2)cc1	i
CN(c1ccc(C(=O)NCc2ccncc2)cc1)S(C)(=O)=O	1.1
Oc1ccc(-c2nc3ncccn3c2Nc2ccc3c(c2)OCCO3)cc1	1.6
COCC(C)n1c(C)cc(C(=O)CSc2nnc(Nc3ccccc3F)s2)c1C (configuration not stated)	i
O=C(COC(=O)C1CC1)Nc1ccc(OC(F)F)cc1	0.8

Single entries from above.
In H5N1 CPE, `Cc1ccc(NC(=O)N/C=C/c2ccccc2)cc1` reads 2.0
In H5N1 CPE, `Cc1c(NC(=O)CSc2nc3ccc(Cl)cc3[nH]2)c(=O)n(-c2ccccc2)n1C` reads 0.8

Going on with the list:
SMILES	H5N1 CPE
O=C(Cn1nnc2ccccc2c1=O)NC1CCCc2ccccc21 (configuration not stated)	i
C=CCN(c1ccccc1)S(=O)(=O)c1cccc(C(=O)O)c1	0.4
COC(=O)c1c(-c2cccs2)csc1NC(=O)CN1CCOCC1	i
Cc1ccc(N2C(N)=C(C#N)C(c3ccsc3)C3=C2CC(C)(C)CC3=O)cc1 (configuration not stated)	i
O=c1c2ccccc2nc(-c2ccco2)n1-c1ccccn1	i
O=S(=O)(NCc1cn2ccccc2n1)c1cc(F)ccc1F	1.4
Cc1ccc(C(=O)O)cc1NC(=S)NC(=O)Cc1ccccc1	0.1
CC1Cc2ccccc2N1C(=O)CSc1nnc(-c2ccc(S(=O)(=O)N3CCCC3)cc2)o1 (configuration not stated)	0.1
Cc1ccc(OC(=O)c2ccc3snnc3c2)cc1	i
COc1ccc(C2C(C(=O)NCc3ccco3)CCC(=O)N2c2ccc(OC)cc2)cc1 (configuration not stated)	i
COc1ccc(O)c(C=Nc2cc(C)on2)c1	i
CCCC1Cc2c(sc3ncnc(N)c23)CO1 (configuration not stated)	7.1
C=CCn1c(SCC(=O)Nc2cc(C)ccc2C)nnc1-c1cnccn1	i
Cc1nc(C)c(-c2csc(NCc3ccccc3)n2)s1	i
Cc1cc(OCC(=O)N2CCOCC2)ccc1NC(=O)C1CCCCC1	0.1
CCc1c(C)nc2cc(-c3ccc(OC)cc3)[nH]n2c1=O	i
CN1CCN(CCCCC(=O)c2ccccc2)CC1	i
O=C(Nc1nnc(CCc2ccccc2)s1)c1ccco1	i
Cc1nnsc1NC(=O)OCc1ccc(C(C)(C)C)cc1	0.9
Cc1ccc(C)c(-c2nnc(OCC(=O)Nc3cc(C)on3)c3ccccc23)c1	0.2
Cc1nc2cc(CO)ccc2s1	0.2
CCOc1ccccc1NC(=O)C1CCCN(S(=O)(=O)c2cccc3nsnc23)C1 (configuration not stated)	i
Cc1cccc(-c2oc(C)c(C)[n+]2[O-])c1	2.1
Cc1ccc2cccc(S(=O)(=O)Nc3c(C)n(C)n(-c4ccccc4)c3=O)c2n1	0.2
Cc1cc(O)c(CN2CCN(c3ccccc3)CC2)cc1C	i

Laid out differently: results already given.
Compound | H5N1 CPE
Cc1cc(O)c(CN2CCN(c3ccccc3)CC2)cc1C | i
CC1Cc2ccccc2N1C(=O)CSc1nnc(-c2ccc(S(=O)(=O)N3CCCC3)cc2)o1 (configuration not stated) | 0.1
O=S(=O)(NCc1cn2ccccc2n1)c1cc(F)ccc1F | 1.4
O=C(Cn1nnc2ccccc2c1=O)NC1CCCc2ccccc21 (configuration not stated) | i

A draw from above in order of count of non-hydrogen atoms, smallest number first.
SMILES	H5N1 CPE
COc1ccc(O)c(C=Nc2cc(C)on2)c1	i
Cc1ccc(OC(=O)c2ccc3snnc3c2)cc1	i
CCc1c(C)nc2cc(-c3ccc(OC)cc3)[nH]n2c1=O	i
O=S(=O)(NCc1cn2ccccc2n1)c1cc(F)ccc1F	1.4
Cc1cc(OCC(=O)N2CCOCC2)ccc1NC(=O)C1CCCCC1	0.1
C=CCn1c(SCC(=O)Nc2cc(C)ccc2C)nnc1-c1cnccn1	i

More results follow.
SMILES	H5N1 CPE
CCN(c1ccc(NC(=O)COC(=O)c2cccs2)cc1)C(C)C	0.4
CCOc1ccccc1-c1nc(-c2ccc(NC(=O)Cc3ccccc3OC)cc2)no1	i
Cc1cccc(NCN2C(=O)C3C4C=CC(C4)C3C2=O)c1 (configuration not stated)	1.2
COc1ccc(C(=O)Nc2ccc(Cl)cc2C(=O)N2CCCC(C)C2)cc1 (configuration not stated)	i
COc1ccc(CNC(=O)CCNS(=O)(=O)c2ccc(C)cc2)cc1	i
CC1CC(N(C(=O)c2ccco2)c2ccccc2)c2ccccc2N1C(=O)c1ccco1 (configuration not stated)	i
COCCCNC(=O)CCc1nc2cccnc2n1Cc1ccc(OC)cc1	0.5
CN(C(=O)CSc1ccccc1C(=O)O)C1CCCCC1	0.3

Screening results from PubChem.

An excerpt; the hit share may differ from the screen's.
